Mtb betalactam = beta-lactam sensitization of Mtb H37Rv; inhibition, % at 25 µM; 330,000 compounds, 0.27% hits; M. tuberculosis H37Rv growth with meropenem, percent inhibition; hits of this screen are not shown here; AID 434955;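 active = about 74% or more and at least 40 points above the plate without the antibiotic, then above 30% in a dose series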;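 note: growth measured after seven days incubation then overnight dye step; 0% = bacteria only wells and 100% = bacteria with antibiotic; twin plates without the antibiotic show which effects depend on it; some results filed as inactive read as strong as hits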
Arbovirus inh = arbovirus infection inhibition; AID 1251; 200,000 compounds, 0.37% hits; inhibition, % at 10 µM; arbovirus infection cell-based antiviral screen;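 active = inhibition from about 30%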;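 note: bluetongue infection of BSR cells; cell survival read as ATP light after 72 h; 0% = infected wells without compound and 100% = uninfected wells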
YopH inh = YopH (Yersinia) phosphatase inhibition. inhibition, %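 (about 10 µM by stock and volumes)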. fluorescence Ex485/Em525. 140,000 compounds, 0.16% hits;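 active = inhibition of 50% or more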;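 note: controls were vehicle for no effect and minimum signal wells for full effect; inactives centre near -20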
Mtb growth = M. tuberculosis H37Rv growth inhibitors, H37Rv strain (AID 1626). 220,000 compounds, 0.95% hits. M. tuberculosis H37Rv growth inhibition; higher % means a stronger effect. inhibition, % at 10 µM, or IC50 in µM where a hit was titrated;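 active = confirmed in a dose series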;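 note: bacteria incubated seven days before Alamar blue readout; 0% = bacteria only wells and 100% = bacteria with antibiotic wells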
RecA splice inh = blocks M. tuberculosis RecA intein splicing | P9WHJ3 | cell-free RecA intein splicing, fluorescence | inhibition, %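 (about 9 µM by stock and volumes)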 | 290,000 compounds, 0.75% hits; in the data active = inhibition above about 30%;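 note: 0% = vehicle wells and 100% = reference inhibitor control wells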
Target sequence (P9WHJ3 whole entry, looked up, canonical isoform): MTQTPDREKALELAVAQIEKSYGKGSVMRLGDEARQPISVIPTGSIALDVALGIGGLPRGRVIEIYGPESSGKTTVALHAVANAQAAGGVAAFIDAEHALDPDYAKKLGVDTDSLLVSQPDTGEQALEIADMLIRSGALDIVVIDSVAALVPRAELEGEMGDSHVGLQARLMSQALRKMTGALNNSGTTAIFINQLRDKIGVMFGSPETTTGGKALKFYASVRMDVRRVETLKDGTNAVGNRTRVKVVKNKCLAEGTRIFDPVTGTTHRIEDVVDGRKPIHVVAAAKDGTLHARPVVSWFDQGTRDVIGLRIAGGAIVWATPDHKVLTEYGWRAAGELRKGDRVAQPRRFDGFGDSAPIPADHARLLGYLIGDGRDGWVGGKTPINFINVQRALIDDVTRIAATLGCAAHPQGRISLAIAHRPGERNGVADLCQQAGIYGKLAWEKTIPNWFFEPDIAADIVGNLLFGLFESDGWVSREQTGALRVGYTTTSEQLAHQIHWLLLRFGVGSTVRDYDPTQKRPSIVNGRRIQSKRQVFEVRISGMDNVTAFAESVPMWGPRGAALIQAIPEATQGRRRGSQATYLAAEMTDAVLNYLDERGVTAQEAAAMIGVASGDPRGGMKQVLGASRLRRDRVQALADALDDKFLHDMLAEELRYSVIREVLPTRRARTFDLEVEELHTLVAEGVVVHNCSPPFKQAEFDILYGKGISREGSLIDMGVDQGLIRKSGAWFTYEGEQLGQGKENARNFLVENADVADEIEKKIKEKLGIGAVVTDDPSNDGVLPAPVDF
Arbovirus inh repeat = also measured in Arbovirus inh; calls as there; inhibition, %; measured here: 10K subset replicate screen; many hits read low in the repeat;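 first of two repeat runs on a subset; 0% = infected and 100% = uninfected wells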
* marks the source's active call; other numbers are inactive results; · = no result given; & = joins results of further samples. An excerpt (hit frequency here may not be typical).

SMILES	Mtb betalactam	Arbovirus inh	YopH inh	Mtb growth	RecA splice inh	others
CC1CCc2c(sc(NC(=O)Cn3cnc([N+](=O)[O-])n3)c2C(N)=O)C1 (stereo not given)	-2	21	·	6%	-1.8
O=C(c1ccc(CS(=O)(=O)c2ccc(Br)cc2)o1)N1CCN(c2ncccn2)CC1	1	0	-49	-1%	·	Arbovirus inh repeat=-8
COc1ccc2c(c1)c(CC(=O)Nc1nnc(C3CC3)s1)c(C)n2C(=O)c1ccc(Cl)cc1	10	·	·	5%	3.6
O=C(Nc1c2c(nn1-c1cccc(Cl)c1)CS(=O)(=O)C2)c1cccs1	4	·	·	·	0.6
CCOC(=O)N1CCN(c2c(Nc3ccc4c(c3)OCCO4)c(=O)c2=O)CC1	-5	-1	-43	-9%	-0.4	Arbovirus inh repeat=1
COc1ccc(C(=O)Nn2c(CCC(=O)O)ccc2-c2ccc(C)cc2)cc1OC	3	6	·	-3%	0.1
Cc1ccc(OCC(=O)Nc2ccccc2C(=O)N2CCCCC2)cc1	0	·	·	·	1.6
Cc1cccc(CN2CCC(CNC(=O)CSc3cc(=O)n(C)c4cc(Cl)ccc34)CC2)c1	-1	·	·	8%	-1.5
O=C(NCCNC(=O)c1cc(OCC(F)(F)F)ccc1OCC(F)(F)F)Nc1cccc(C(F)(F)F)c1	-7	-19	-32	3%	-0.9
O=C(CSc1nnc(-c2cccnc2)o1)N1CCCCC1	-2	·	·	·	3.1
O=C(CN1C(=O)NC(c2ccccc2)(c2ccccc2)C1=O)Nc1cccnc1Cl	5	6	·	1%	-1.2
COc1ccc(NC(=O)COc2ccc(CNCCCN3CCOCC3)cc2OC)cc1	-4	14	-33	7%	-5.3
Cc1cc(C)n(C(=O)c2cc3ccccc3c(=O)o2)n1	0	-9	0	-7%	0.6
CC[C@H](C)[C@@H](NC(=O)O[C@@H]1C(=O)c2cc(Br)ccc2O[C@H]1c1ccc2c(c1)OCO2)C(=O)OC	·	9	-27	-8%	·
Cc1ccc(S(=O)(=O)N(C)CC(=O)NCc2ccncc2)cc1	-13	13	-30	-1%	·
COC(=O)c1cccc(-n2nnnc2SCC(=O)Nc2nc3c(s2)CCCC3)c1	54	-7	-39	4%	5.1
CC(NC(=O)Nc1ccccc1)C(c1cccs1)N1CCN(C)CC1 (stereo not given)	-4	25	-20	-3%	10
CCC1CCCCN1CCCNC(=O)Cn1cc2c(n1)-c1c(oc(C(=O)N3CCCC3)c1C)CC2 (stereo not given)	-2	·	·	·	-4.1
Cn1c(NCc2ccco2)nc2ccccc21	-7	3	-23	-7%	-2.9
CCOC(=O)c1c(-c2cccc([N+](=O)[O-])c2)csc1NC(=O)C1CC1	84	-13	-30	2%	23
Cc1cc(C)cc(-n2c(O)c(C=Nc3ccc(N4CCOCC4)cc3)c(=O)[nH]c2=S)c1	2	-18	0	-8%	-10
CCOC(=O)c1cc(C(=O)NC(C)c2ccccc2)c(C)[nH]c1=O (stereo not given)	-4	-13	·	-5%	1.8
CC(C)c1ccc(NC(=O)C2CCN(S(=O)(=O)c3ccc4c(c3)C(C)(C)C(=O)N4C)CC2)cc1	-1	·	·	·	0.6
COc1ccc(C(=O)Nc2ncccc2C)cc1S(=O)(=O)N1CCOCC1	-18	·	·	·	-0.4
O=C(CN1CCN(c2ccc(C(F)(F)F)cn2)CC1)NCc1ccc2c(c1)OCO2	4	·	·	6%	2.1
Additional structures:
SMILES	Mtb betalactam	Arbovirus inh	YopH inh	Mtb growth	RecA splice inh	others
COc1ccc(C#Cc2c(-c3ccc(OC)cc3)oc3ccc(-c4ccc5c(c4)OCO5)cc23)cc1	15	·	·	9%	-0.6
CS(=O)(=O)NNP(=O)(NNS(C)(=O)=O)NC(=O)c1ccccc1	-9	·	·	-5%	-4.3
CC(NC(=O)C(C)N1CCN(Cc2ccccc2)CC1)c1ccccc1 (stereo not given)	-6	·	·	·	-0.5
COc1c(C(=O)Nc2nnc(C3CC3)s2)csc1Cl	-7	·	·	·	-3.2
COc1ccc(C(=O)COC(=O)CCNS(=O)(=O)c2ccccc2)cc1Br	-14	·	·	·	1.6
c1c2c(cc3sc(N4CCOCC4)nc13)OCO2	-3	-2	-43	-7%	-0.5
COC(=O)c1ccc(N2CCN(C)CC2)c(NC(=O)COc2ccccc2)c1	-2	·	·	·	4.6
COc1cc(C=C2C(=O)NC(=O)NC2=O)cc(OC)c1OC	-5	·	·	-11%	-1.1
O=C(NCCS(=O)(=O)NCc1ccccc1Cl)c1ccccc1	-10	·	·	·	2.6
Cc1ccc(S(=O)(=O)N/N=C/c2ccc3nccnc3c2)cc1	-4	·	·	-9%	0.5
CCOc1ccc(C(=O)N2CCCCCC2)cc1	-4	-2	4	2%	-1.4
CC(C)CC(NC(=O)C1CCCN1C(=O)CNC(=O)OCc1ccccc1)C(=O)O (stereo not given)	5	·	·	·	-1.4
COc1cc(NC(=O)C(C)Oc2ccccc2)c(OC)cc1NC(=O)c1ccccc1 (stereo not given)	92	·	·	·	12
CCCOc1ccc(C(=O)Nn2c(C)nc3ccccc3c2=O)cc1	6	8	-39	0%	-3.0
CCN(CC)C(=O)c1ccccc1NC(=O)CN1C(=O)c2ccccc2S1(=O)=O	1	·	·	·	-0.4
COc1ccc(N2C(=O)C3CCCN3C2c2cccc(Br)c2)cc1 (stereo not given)	-6	13	-41	0%	-0.7
COc1ccc2[nH]c(C)c(CCN3C(=O)OC(C)(C)C3(C)O)c2c1 (stereo not given)	-2	4	-33	4%	-0.5	Arbovirus inh repeat=4
CC(=O)Nc1ccc(NC(=O)C(C)OC(=O)CCC2CCCCC2)cc1 (stereo not given)	6	·	·	·	1.3
CCOC(=O)CC(=O)Nc1ccc(C)cc1	4	-7	-5	·	-4.0
O=C(CCSCc1cccc(Cl)c1)NCCc1ccccc1	-7	-1	-13	-6%	2.4
CN(C)CCCN(C(=O)/C=C/c1cccs1)c1nc2ccc(F)cc2s1	·	1	·	33%	5.6
Cc1c(C(=O)C(=O)N2CCC3(CC2)OCCO3)c2ccccc2n1C	-6	4	·	1%	4.1
Cc1cc(Cl)ccc1OCC(=O)Nc1ccc2oc(=O)ccc2c1	0	·	·	·	-1.6
CC(C)OP(=O)(Nc1cccc2ccccc12)OC(C)C	-3	1	-24	2%	-1.1
COc1ccc(-c2nc(-c3cccs3)c(-c3cccs3)[nH]2)cc1O	0	-30	-21	6%	27

Ordered by SMILES length (highest first): part of the list above
SMILES	Mtb betalactam	Arbovirus inh	YopH inh	Mtb growth	RecA splice inh	others
COc1cc(NC(=O)C(C)Oc2ccccc2)c(OC)cc1NC(=O)c1ccccc1 (stereo not given)	92	·	·	·	12
O=C(Nc1c2c(nn1-c1cccc(Cl)c1)CS(=O)(=O)C2)c1cccs1	4	·	·	·	0.6
COc1ccc(NC(=O)COc2ccc(CNCCCN3CCOCC3)cc2OC)cc1	-4	14	-33	7%	-5.3
Cc1ccc(S(=O)(=O)N(C)CC(=O)NCc2ccncc2)cc1	-13	13	-30	-1%	·
O=C(NCCS(=O)(=O)NCc1ccccc1Cl)c1ccccc1	-10	·	·	·	2.6
c1c2c(cc3sc(N4CCOCC4)nc13)OCO2	-3	-2	-43	-7%	-0.5

Additional entries
SMILES	Mtb betalactam	Arbovirus inh	YopH inh	Mtb growth	RecA splice inh	others
CC(C)NC(=O)Cn1c(SCC(=O)N2CCc3ccccc3C2)nc2ccccc21	-6	13	5	-8%	7.1
Cc1cc(NCc2ccc3c(c2)OCO3)n2nc(C)nc2n1	2	7	-21	3%	0.4	Arbovirus inh repeat=-2
Cc1ccc2c(c1)N(CC(=O)OCC(=O)NCc1ccccc1)C(=O)CO2	16	-1	·	-6%	0.3
O=C(O)c1cccc(CN2C(=O)SC(Nc3ccccc3)C2=O)c1 (stereo not given)	-6	7	-44	6%	-2.4
Cc1nn2c(NCCN3CCOCC3)c3c(nc2c1-c1ccccc1)CCCC3	56	·	·	16%	4.3
CCOc1cc(CN2CCN(CCOCCO)CC2)ccc1OC	-7	0	9	-5%	·
CC(=O)c1ccc(Nc2cc(C)nc3ccc(C)cc23)cc1	12	-26	·	3%	-3.0
O=C(NCc1ccccc1)/C(=C/c1cccc([N+](=O)[O-])c1)NC(=O)c1ccco1	-1	·	·	·	0.2
COc1cc(/C=C/c2cc(C(=O)O)c3ccccc3n2)ccc1OC(F)F	6	·	·	-4%	1.2
CC(NC(=O)COc1ccccc1Cl)c1ccccc1 (stereo not given)	6	·	·	·	4.0
CC1CCN(CC(=O)Nc2cccc(C(=O)Nc3cccc(C(F)(F)F)c3)c2)CC1	15	-3	3	21%	0.1
C#CCn1cc[n+](CC(=O)N(C)C)c1	-6	2	-35	1%	-1.0
CCS(=O)(=O)c1ccc2oc(SCC(=O)Nc3ccc(OC)cc3)nc2c1	5	12	·	5%	-2.3
Cc1ccc(C(=O)NC(=S)N(C)C2CCCCC2)cc1	80	·	·	·	3.9
CC1CCCCC1N(C)C1CCN(C(=O)CNC(=O)/C=C/c2cccc(Cl)c2)CC1 (stereo not given)	-3	·	·	·	-0.1
COc1ccc(CCNC(=S)N2CCC(Cc3ccccc3)CC2)cc1OC	0	-6	·	1%	4.0
O=C(CC1CCCCC1)Nc1ccccc1-c1ccccc1	11	-6	-6	17%	-1.2
CCN(CC)S(=O)(=O)c1ccc(NC2c3ccccc3C(=O)N2Cc2ccco2)cc1 (stereo not given)	-2	-5	-33	10%	3.2
CCN(CC)CCCOC(=O)C(c1ccccc1)c1ccccc1	0	0	·	-6%&-1%	1.2	Arbovirus inh repeat=-3
CC(NC(=O)c1cc(S(=O)(=O)N(C)C)ccc1Cl)c1ccc(-n2ccnc2)cc1 (stereo not given)	-4	·	·	·	-1.1
Cc1cnc(NC(=O)COc2ccccc2Cl)s1	-1	-3	13	2%	-0.4
O=C(NC1(C(F)(F)F)C(=O)Nc2c1c(=O)[nH]c(=O)n2Cc1ccccc1)c1ccc(Cl)cc1 (stereo not given)	9	-3	-15	-11%	-5.3
CCCOc1ccc(N2C(=O)CC(N(Cc3ccco3)C(C)=O)C2=O)cc1 (stereo not given)	4	8	·	-2%	2.3
O=C(CCS(=O)(=O)c1ccccc1)Nc1ncc([N+](=O)[O-])s1	11	·	·	·	14
CCOc1cc(N2CCOCC2)c(OCC)cc1NC(C)C(=O)N1CCN(CC)CC1 (stereo not given)	·	-3	·	5%	0.0
(list continues)
SMILES	Mtb betalactam	Arbovirus inh	YopH inh	Mtb growth	RecA splice inh	others
COc1ccc(NC(=O)Nc2sc(=S)n(C)c2C)cc1	-4	3	·	-3%	2.0
O=C(O)C1CC=CCC1C(=O)Nc1ccc(F)c(F)c1 (stereo not given)	-8	5	-33	-9%	0.4
Cc1ccc([N+](=O)[O-])cc1S(=O)(=O)N1CCNCC1	-7	3	·	-10%	-3.4
c1ccc(Cn2c(SCc3nc4ccccc4s3)nnc2-c2ccco2)cc1	-6	-4	21	-5%	20
Cn1c(=O)c2cc3ccccc3nc2n(C)c1=O	-6	·	·	0%	0.8
CC(C)Cc1nnc(NC(=O)CCC(=O)N2CCOCC2)s1	-1	2	17	-21%	-1.0
Cc1cc(C(F)(F)F)nc(SCc2ccc(C(=O)O)o2)n1	-2	6	-49	-11%	3.5
COc1ccc(NS(=O)(=O)c2ccc3oc(=S)[nH]c3c2)cc1	-5	·	·	-13%	-0.9
O=C(c1ccccc1)N1CCCCC(Cl)C1=O (stereo not given)	-6	4	·	0%	0.7
CC1CCN(C(=O)COC(=O)Cc2ccc(Br)cc2)CC1	1	·	·	·	-1.9
N#CC1=C(N)Oc2c(c(=O)oc3ccccc23)C1c1ccc(OC(=O)N2CCOCC2)cc1 (stereo not given)	-1	·	·	·	0.7
CCCNC(=O)C12CCC(C)(c3nc4cc(C)c(C)cc4nc31)C2(C)C (stereo not given)	-1	16	·	5%	3.8
Cc1ccc(-n2c(C)cc3c2CCCC3=O)cc1	14	3	6	0%	3.1
CCCn1nnc(NC(=O)/C=C/c2ccc(C(C)C)cc2)n1	-10	·	·	-2%	0.2
CCC1NC(=S)N(C2CCCCC2)C1=O (stereo not given)	-13	6	-40	1%	0.3
O=C(CN1C(=O)CCS(=O)(=O)c2ccccc21)Nc1ccc(Cl)cc1	2	·	·	·	0.7
CCSc1nnc([C@H](C)NC(=O)OC(C)(C)C)o1	-5	3	-32	2%	-0.1
COc1ccccc1NC(=O)C1=C(C)Nc2nc(-c3ccccc3)nn2C1c1ccccn1 (stereo not given)	-4	3	4	-4%	1.0
O=C(c1ccc2snnc2c1)N1CCCC1	-20	7	-32	-8%	·	Arbovirus inh repeat=1
CC(C)Cn1c(CNC(=O)c2ccccc2)nc2ccccc21	-2	-2	-35	-3%	3.6	Arbovirus inh repeat=-4
CCOC(=O)c1nnn(-c2nonc2N)c1COc1cc(C)c(Cl)c(C)c1	9	·	-13	8%	1.0

Compound activity deposited in PubChem BioAssay by several laboratories.
